Sa ugtP lethal: compounds lethal to S. aureus RN4220 ugtP deletion mutant; growth inhibition, % (test concentration not listed); OD600 growth, 16 h; some inactives read as strong as hits; 330,000 tested, 0.54% active;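 active = z-score under -3 and OD600 up to 0.15 on both plates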;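 also: plate controls were untreated wells for no effect and antibiotic for full effect; wells of about 80 µL received 100 nL stock; the first replicate is given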
PrP 5UTR inh: suppresses PrP 5' UTR mRNA reporter expression | inhibition, % (concentration not given with the values) | cell-based PrP 5' UTR mRNA reporter, plate reader | AID 488862 | 340,000 tested, 0.35% active;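 active = every replicate at 50% or more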;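 also: 0 = median of the neutral control wells; tested in H4 reporter cells; numbers are from one replicate; inactives centre near -14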
Autofluor counter: flagged as autofluorescent in microsphere protease counterscreen | compound autofluorescence counterscreen, microsphere flow cytometry; stronger effect = higher value | fluorescence intensity (concentration not given with the values) | 360,000 tested, 3.1% active | AID 624483;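 active = at least 3 SD above the mean of all compounds, about 16000 in these data; inconclusive = too few beads counted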;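 also: 100 nL of 1 mM stock went into each well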
Mtb hypoxia rep: inhibitors of hypoxia-regulated fluorescent reporter in Mycobacterium tuberculosis; M. tuberculosis hypoxia-regulated fluorescent reporter, fluorescence; fluorescence inhibition, % (concentration not given with the values); 300,000 tested, 0.1% active; AID 1159583;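 active = 35 to 45% if threefold the growth effect, above 45% if 1.5-fold the growth effect; inactive = the rest, general growth blockers included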;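 also: wells of about 50 µL received 100 nL stock; 0% = vehicle wells and 100% = reference inhibitor wells; whole bacteria with a GFP reporter of the hypoxia response; strong numbers were not always called active; many hits fall short of the cut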
RN4220 kill: kills Staphylococcus aureus RN4220 | 330,000 tested, 0.33% active | S. aureus RN4220 growth, OD600, 16 h | AID 1259311 | inhibition, % (test concentration not listed);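 active = z-score of -3 or lower and OD600 up to 0.18 on both plates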;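 also: plate controls were untreated cells for no effect and reference antibiotic for full effect; stock transfer was 100 nL into about 80 µL; one replicate is shown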
BJeLR viability: kills HRASV12-expressing BJeLR cells; BJeLR (HRASV12) viability, CellTiter-Glo ATP luminescence, 48 h; reference of the scale not given here; 300,000 tested, 0.17% active; inhibition, % (no concentration beside the values);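 active = replicate mean above 50%; inconclusive = above 50% but judged a plate artefact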;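 also: 50 nL library stock added to about 25 µL; numbers are from one replicate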
Mtb hypoxia rep growth: also measured in Mtb hypoxia rep; calls as there; growth inhibition, %; measured here: M. tuberculosis growth (absorbance);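 0% = vehicle and 100% = reference antibiotic; read after six days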
Active calls of the source: *; ? = inconclusive; . = no result given; & = joins results of further samples.

SMILES	Sa ugtP lethal	PrP 5UTR inh	Autofluor counter	Mtb hypoxia rep	Mtb hypoxia rep growth	RN4220 kill	BJeLR viability
COc1ccc(C(=O)Nc2nc3c(s2)Cc2cc(OC)ccc2-3)cc1	-12	-32	2805	3	4	1.0	10
Cn1nnnc1SCc1c(F)cccc1F	-3	-9	21178*	6	8	4.4	-5
O=C(NCCc1c[nH]c2ccccc12)/C(=C\c1cccnc1)NC(=O)c1ccccc1Br	-2	-11	3733	5	4	3.0	0
O=C(Nc1ccc(COc2ccccc2)cc1)Nc1cccc(C(=O)O)c1	6	-12	3635	16	10	7.1	4
COC(=O)c1ccc(CSc2nc3c(c(=O)n2-c2ccc(C)cc2)SCC3)o1	24	-6	5134	-6	-1	16	-8
COc1ccc(OC)c(S(=O)(=O)NCCc2csc(-c3cccnc3)n2)c1	5	9	.	15	13	3.8	-8
C=CCNC(=S)N/N=C/c1ccc(C(C)(C)C)cc1	.	-11	5491	.	.	.	-2
COc1ccccc1N1CCN(C(=O)C2CCC(Cn3c(=S)[nH]c4ccccc4c3=O)CC2)CC1 (stereo not drawn)	-14	-6	17156*	2	2	2.3	2
CCN(c1ccccc1)S(=O)(=O)c1cccc(C(=O)OCC(=O)c2c(N)n(C)c(=O)n(C)c2=O)c1	-8	-1	3796	-3	5	4.1	.
Cc1cccc(N2CCN(C(=O)c3c(-c4ccccc4Cl)noc3C)CC2)c1C	.	46	5600	.	.	.	34
O=C(Nc1nc2ccccc2[nH]1)c1ccc(Cl)c([N+](=O)[O-])c1	3	-62	4194	-13	1	3.3	6
COc1cc(/C=C/C(=O)OCC(=O)N2CCN(C(=O)c3ccco3)CC2)ccc1O	4	-5	2579	5	3	-0.3	-14
COc1ccc(N=Nc2c(C)[nH][nH]c2=O)cc1	-1	-15	1860	11	11	-0.3	9
CNC(=O)c1cc2c(=O)n3cccc(C)c3nc2n(C(C)C)c1=N	4	-39	9028	1	-1	1.5	-3
Cc1cc(C)c(S(=O)(=O)Oc2ccccc2[N+](=O)[O-])c(C)c1	2	-12	3788	7	4	6.8	.
CN(C)C(=O)c1nnsc1Sc1ccc(Cl)cc1	-2	-39	2644	16	9	6.7	3
CCCCn1cnc2c(SCc3ccc(Br)cc3)nc(N)nc21	-5	-10	3794	18	11	2.2	.
O=C(Nc1ccccc1N1CCN(C(=O)c2ccccc2)CC1)c1cccc(Cl)c1	-4	-38	4687	0	9	0.6	-5
COC(=O)c1sccc1-c1ccc(C=NOC(=O)c2ccccc2)o1	4	.	.	5	-4	5.3	.
CC1(C)CC2(C)OC(=N)C1(C#N)C2(C#N)C#N (stereo not drawn)	4	-10	6423	23	3	4.8	-2
Cc1nc(SCC(=O)NCc2ccco2)nc(C)c1C	-6	-18	5145	3	11	6.4	0
Cn1c(SCC(=O)NCc2ccco2)nnc1C1CC1	6	-20	3760	-1	5	8.1	.
CC(C(O)c1ccccc1)N(C)C(=O)CN (stereo not drawn)	-7&0	.	.	3&8	2&0	4.1&4.7	.
C(=C\c1ccccc1)/CSc1nnc(-c2cnccn2)n1Cc1ccco1	8	7	2379	3	0	19	9
CCCC(=O)Nc1sc(C(=O)OC)c(C)c1C(N)=O	3	-13	12495	8	11	3.5	-6
O=C(Nc1ccc(-c2ccccc2)cc1)c1ccc2c(c1)S(=O)(=O)c1ccccc1C2=O	-3	-5	3449	0	1	-3.0	8
Cc1ccc(NC(=O)C(C)OC(=O)COc2cccc(C(F)(F)F)c2)cc1S(=O)(=O)N1CCOCC1 (stereo not drawn)	2	5	2745	3	4	5.0	.
Cc1cccc(N2C(S)=C(C#N)C(=O)NC2c2ccco2)c1 (stereo not drawn)	3	-16	3408	12	-3	5.2	2
CC(C)c1nnc(N2C(=O)C(O)=C(C(=O)c3cccs3)C2c2ccccc2)s1 (stereo not drawn)	0	-25	4686	-4	1	-1.0	-6
CC1CCC(N(CCCN)Cc2ccco2)CC1C (stereo not drawn)	6	-3	4708	2	8	2.3	-2

As entered above:
CC1CCC(N(CCCN)Cc2ccco2)CC1C (stereo not drawn) in PrP 5UTR inh is entered as -3
COC(=O)c1sccc1-c1ccc(C=NOC(=O)c2ccccc2)o1 in RN4220 kill is entered as 5.3
O=C(Nc1ccccc1N1CCN(C(=O)c2ccccc2)CC1)c1cccc(Cl)c1 in Mtb hypoxia rep growth is entered as 9
Cn1c(SCC(=O)NCc2ccco2)nnc1C1CC1 in Mtb hypoxia rep is entered as -1

Later entries
SMILES	Sa ugtP lethal	PrP 5UTR inh	Autofluor counter	Mtb hypoxia rep	Mtb hypoxia rep growth	RN4220 kill	BJeLR viability
Fc1cccc(Cl)c1Cn1nnc2c(NCc3ccccn3)ncnc21	9	2	4626	.	.	1.2	6
COc1ccc(CN2CCN(CC3CC3)CC2CCO)cc1C (stereo not drawn)	-4	-9	3918	-5	0	-0.1	-6
COc1cccc(C(=O)NCCNC(=O)c2ccc(C)nc2)c1	3	-11	5837	-9	-4	1.4	-4
COc1ccc(C(=O)CNC2=NCCC2)cc1	11	-1	3186	11	12	0.6	3
CC[C@H]1CN(C)C[C@@]2(C(=O)OC)Cc3c([nH]c4ccccc34)C(=O)C[C@@H]12	5	-13	5504	.	.	3.0	-1
CCOC(=O)C1C(=O)C=C(N2CCOCC2)CC1c1cccc(OC)c1 (stereo not drawn)	6	-16	3639	.	.	2.8	-3
CCOC(=O)c1sc2nc(C)nc(NCc3ccccc3)c2c1C	14	-2	3244	14	15	0.8	16
Cn1c(N)cc(-c2ccc(F)cc2)c(C#N)c1=O	6	-3	4540	2	-1	8.7	-7
CCc1nc2ccccc2c(C(=O)OCC(=O)NC2CC2)c1C	4	.	5241	13	8	4.6	.
CC1CN(Cc2cn(C)nc2-c2ccc(Oc3ccccc3)cc2)CCN1C (stereo not drawn)	2	-18	3614	13	-2	13	-9
O=C(Nc1ccccc1)c1sccc1Oc1ccc([N+](=O)[O-])cc1F	3	-13	4298	14	8	8.8	9
Cc1cccn2c(=O)c(C=O)c(N3CCCCCC3)nc12	-3	-16	19642*	11	8	5.4	0
OCC1(CCOc2ccccc2)CCN(Cc2ccc3c(c2)OCCO3)CC1	-3	-34	4892	10	7	0.9	-6
Nc1cc(Cl)cc2c1-c1ccc(Cl)cc1C2	18	-30	3628	11	0	-8.5	.
CN(C)c1ccc(N=C/C=C2\N(C)c3ccccc3C2(C)C)cc1	9	-31	4585	.	.	-1.8	8

An excerpt of these results, with each value named.
CCN(c1ccccc1)S(=O)(=O)c1cccc(C(=O)OCC(=O)c2c(N)n(C)c(=O)n(C)c2=O)c1
  Sa ugtP lethal = -8	PrP 5UTR inh = -1	Autofluor counter = 3796	Mtb hypoxia rep = -3	Mtb hypoxia rep growth = 5	RN4220 kill = 4.1	BJeLR viability = .
Cc1cccc(N2CCN(C(=O)c3c(-c4ccccc4Cl)noc3C)CC2)c1C
  Sa ugtP lethal = .	PrP 5UTR inh = 46	Autofluor counter = 5600	Mtb hypoxia rep = .	Mtb hypoxia rep growth = .	RN4220 kill = .	BJeLR viability = 34

(further entries)
SMILES	Sa ugtP lethal	PrP 5UTR inh	Autofluor counter	Mtb hypoxia rep	Mtb hypoxia rep growth	RN4220 kill	BJeLR viability
CCOc1cc(C(=O)OCC(=O)Nc2cc(C)on2)ccc1OCC(C)C	1	-9	2499	8	0	2.6	-6
COc1ccccc1N1CCN(C(=O)Nc2cccc(C)c2)CC1	-4	-36	5193	.	.	1.9	-4
CCCC(=O)C1=C(O)C(C(=O)OC)C(C)(C)CC1=Nc1ccccc1 (stereo not drawn)	10	-56	3642	.	.	5.7	-3
Cc1cc(C)n(CC(C)Nc2nc3nonc3nc2N2CCCCC2)n1 (stereo not drawn)	4	-25	4969	11	5	4.1	-2
CNC(=S)N(Cc1ccc2c(c1)OCO2)C1CC(=O)N(c2ccccc2)C1=O (stereo not drawn)	-10	-2	2233	7	2	6.4	-7
CSc1ccccc1NC(=O)CN(C)C(=O)c1c(C)nn(Cc2ccccc2)c1C	7	-11	.	5	-2	3.2	.
O=C(NCCOC(=O)C1COc2ccccc2O1)c1cccnc1 (stereo not drawn)	5	-9	2868	.	.	0.4	4
C#CCOc1coc(COC(=O)c2ccccc2)cc1=O	1	-17	4053	-2	11	1.9	-1
CC(C)CNC(=O)c1ccc(NC(=O)c2ccccc2[N+](=O)[O-])cc1	5	-11	6182	6	11	2.5	-7
COc1ccc(OC)c(CNc2nc3ccccc3n2CCN2CCCCC2)c1	-2	-20	16368*	3	2	4.6	0
COc1cccc(C(=O)NCCS(=O)(=O)NCC2CCCO2)c1 (stereo not drawn)	12	-23	5665	3	4	0.7	1
CCOC(=O)COc1cc(=O)n(CC)c2ccccc12	-1	-18	2765	3	3	1.5	-13
FC(F)(F)c1cccc(N2CCN(c3nnnn3-c3ccccc3)CC2)c1	0	-15	4652	16	2	1.0	-3
O=C(CNC1C(=O)Nc2ccccc21)Sc1ccccc1 (stereo not drawn)	0	-8	11013	-3	-9	2.9	1
Cc1[nH]c2ccc(C(=O)NCCCN(C)C3CCCCC3)cc2c1C	0	-12	6384	-1	-34	0.0	0
Cc1ccc2c(c1)C(c1ccncc1)=NNC(c1ccc(F)cc1)=N2	-1	-7	2990	-8	-4	0.0	-6
COc1ccccc1OCCCCCc1c(C)n[nH]c1C	1	-12	16019	10	6	11	3
CCOCCCNC(=O)C(c1ccc(OC)cc1)N(Cc1ccc2c(c1)OCO2)C(=O)c1ccccn1 (stereo not drawn)	4	-21	4359	9	1	6.8	7
O=C(NCCCN1CCCC1=O)c1cc(S(=O)(=O)N2CCN(c3ccccc3)CC2)ccc1Cl	0	-9	3664	2	1	4.0	.
Cc1cc(C(=O)OCC(=O)Nc2nc(-c3ccccc3)cs2)c(C)o1	-8	-89	3336	1	8	8.2	0
O=C1CC(=O)Nc2cc(S(=O)(=O)N3CCOc4ccccc43)ccc2N1	4	-10	4865	6	6	-7.8	-14
COc1ccc(N2CCN(CC(O)COc3ccc([N+](=O)[O-])cc3)CC2)cc1 (stereo not drawn)	1	-9	2027	8	9	0.5	-3
CCOc1cc(/C=N/Nc2nnc(C)n2N)ccc1O	.	-24	3111	.	.	.	-5
CC1CN(C(=O)COC(=O)c2nn(-c3ccccc3)c(=O)c3ccccc23)CC(C)O1 (stereo not drawn)	6	-8	2041	5	-7	-0.2	12
CN1C(=O)C(O)(CC(=O)c2cccc(-n3cccc3)c2)c2ccccc21 (stereo not drawn)	2	-11	10437	9	5	6.5	-4
CN(C)C(CNC(=S)Nc1ccccc1Cl)c1cccnc1 (stereo not drawn)	8	-16	2120	0	-1	4.9	0
CCOC(=O)C1CCCC12Nc1cccc3cccc(c13)N2 (stereo not drawn)	-17	-11	3066	17	8	-0.3	.
O=C(CSc1ncnc2nc[nH]c12)c1ccccc1	3	-45	3214	.	.	-0.5	3
CC(C(=O)NCc1ccc(S(C)(=O)=O)cc1)C1C[C@@]1(C)C(NC(=O)OCc1ccccc1)c1ccccc1 (stereo partly drawn)	6	.	.	17	8	-0.5	.
COc1ccc(C(=O)N2CC=C(c3ccccc3)CC2)cc1S(=O)(=O)N1CCOCC1	7	-16	3786	.	.	-0.4	-4
COc1ccccc1CN(C)C(=O)c1cc2ccccc2o1	9	-26	3661	15	12	5.9	3
COc1ccccc1NC(=S)NCCN1CCOCC1	1	-16	2144	1	0	-1.6	2
CCCN1CCN(S(=O)(=O)c2ccc(OC)c(Br)c2)CC1	-4	12	3753	.	.	-5.9	-9
CC(=O)c1cccc(NC(=O)CCCSc2ccccc2)c1	-1	-14	3146	4	-2	-2.3	-15
O=C(Nc1c(-c2ccccc2)nc2ccccn12)c1ccco1	-1	-47	22214*	6	7	3.1	-5
CN(C(=O)c1ccccc1C(=O)OCC(=O)Nc1ccc(OC(F)F)cc1)c1ccccc1	2	-3	?	-6	4	0.1	.
CC(C)(C)OC(=O)NCCCCCNC(=O)c1nc[nH]c1C(=O)NCc1ccccc1	-8	-6	4285	1	6	6.5	.
OCC[C@@H]1C[C@@H](O)[C@H](O)[C@]2(Cc3ccccc3CCO2)O1	.	-11	2851	.	.	.	2
CCOc1ccccc1N1CCN(Cc2ccc(OC)c(OC)c2OC)CC1	7	-16	21368*	5	6	2.2	17
COc1ccc(NC2SC(=O)N(C)C2=O)cc1 (stereo not drawn)	4	-23	4146	9	6	4.3	4
O=C(CCSc1ccccc1)Nc1nnc(-c2ccccc2)o1	11	-30	5792	5	6	-1.8	-8

Source: PubChem BioAssay
